Source: PubChem (several laboratories)
Vif A3G: inhibitors of Vif binding to APOBEC3G peptide, primary screen, biochemical, TR-FRET, GST-Vif 1-94, biotin-A3G peptide, dose response retest (AID 1117319); TR-FRET GST-Vif / biotin-A3G peptide binding; higher % means a stronger effect; test concentration not given here; strong numbers were not always called active; actives 0.57% (n = 260,000); Virion infectivity factor (Human immunodeficiency virus type 1 group M subtype B (isolate …; inhibition, %; hits with a dose series show IC50 in µM;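 active = above the screen mean plus three standard deviations and confirmed in dose response; inconclusive = results disagree or hit not tested in dose response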;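 also: Vif residues 1-94 fused to GST binding biotinylated APOBEC3G peptide 110-148; 0% = full assay without inhibitor and 100% = GST in place of GST-Vif; retest series ran down from 100 µM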
FGF22 binding: binders of human FGF22 protein, primary screen, FGF22 synaptogenesis inhibitor project, biophysical, thermal shift, single point; Fibroblast growth factor 22 (Homo sapiens), Q9HCT0; recombinant FGF22 thermal shift, SYPRO orange fluorescence; percent of sucrose octasulfate shift, DMSO zero; calls only at 9.99 µM; actives 1.5% (n = 340,000);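 active = melting point raised past a set limit in the mean and every replicate; inconclusive = no clear call; three in four hits are not shown here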
Target sequence (Q9HCT0 whole entry, looked up): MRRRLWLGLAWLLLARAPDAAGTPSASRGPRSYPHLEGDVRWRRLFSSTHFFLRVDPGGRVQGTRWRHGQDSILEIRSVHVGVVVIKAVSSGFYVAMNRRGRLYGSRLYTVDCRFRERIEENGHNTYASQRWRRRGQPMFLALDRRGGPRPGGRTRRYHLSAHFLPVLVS
UCH37 DUB inh: inhibitors of human UCH37 deubiquitinase, primary screen, biochemical, Ub-AMC cleavage, fluorescence; Ubiquitin carboxyl-terminal hydrolase isozyme L5 (Homo sapiens), Q9Y5K5; purified proteasome/UCH37; inhibition, % (concentration not given with the values); actives 0.33% (n = 330,000);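 active = mean of two replicates above 20%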;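 also: 0% = compound-free wells with enzyme and 100% = wells lacking proteasome; stock transfer was 100 nL into about 20 µL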
Target sequence (Q9Y5K5 whole entry, looked up): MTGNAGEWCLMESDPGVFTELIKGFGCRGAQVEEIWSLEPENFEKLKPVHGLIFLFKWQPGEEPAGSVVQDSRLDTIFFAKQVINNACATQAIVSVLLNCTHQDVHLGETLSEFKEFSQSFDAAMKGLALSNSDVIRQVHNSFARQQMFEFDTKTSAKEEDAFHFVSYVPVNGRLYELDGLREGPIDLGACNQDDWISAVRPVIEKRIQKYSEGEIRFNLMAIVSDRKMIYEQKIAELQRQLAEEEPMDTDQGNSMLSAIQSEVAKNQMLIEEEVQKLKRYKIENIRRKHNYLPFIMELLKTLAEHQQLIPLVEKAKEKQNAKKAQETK
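system = Proteasome-associated human UCH37 deubiquitinase | amount = 0.15 nM proteasome as dispensed | medium = pH 7.4 Tris-HCl (50 mM) with ovalbumin, ATP-MgCl2, DTT | incubation = 30 min preincubation with enzyme, 25 min cleavage at room temperature | detection = AMC fluorescence 355/460 nm | read-out basis = percent inhibition | controls = no-proteasome and no-compound wells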
HNF4A DNA FP: change in binding of human HNF4A to DNA, primary screen, biochemical, fluorescence polarization, FITC-DNA | Hepatocyte nuclear factor 4-alpha (Homo sapiens), P41235 | 1 h | activity change, % at 10 µM | actives 0.3% (n = 360,000); in the data active = activity change above about 30%, passing the limit was not always enough;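 also: controls were the assay level and a saturating level of protein; the project sought stronger binding though the title names inhibitors; some compounds called inactive have numbers as strong as hits; positive values seem to mean higher polarization but the record does not say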
RanGTP-Impb inh: inhibitors of RanGTP-importin-beta interaction, primary screen, biochemical, FRET, CFP-Ran, YFP-importin-beta, homogeneous; inhibition, % (test concentration not listed); cell-free CFP-Ran/YFP-importin-beta FRET ratio; actives 1.1% (n = 300,000);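 active = most replicates above 15%; inconclusive = exactly half above 15%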;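 also: 0% = DMSO wells and 100% = Ran loaded with GDP instead of GTP; wells of about 40 µL received 100 nL stock; the first replicate is given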
AF4-AF9 inh: inhibitors of AF4 peptide binding to AF9, primary screen, biochemical, AlphaScreen, biotin-AF4 peptide, FLAG-AF9, single point; Protein AF-9 (Homo sapiens), P42568; inhibition, % at 10 µM; actives 0.47% (n = 350,000); AID 651704, 2012;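 active = every replicate reaching a set inhibition limit, whatever the replicate mean, cut at about 25% in these data; inconclusive = mean inhibition reaches that limit but some replicates miss it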;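 also: 0% = plate neutral control median and 100% = total signal loss; the record names both 10 and 1 µM as test concentration; the first replicate is given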
Target sequence (P42568 whole entry, looked up): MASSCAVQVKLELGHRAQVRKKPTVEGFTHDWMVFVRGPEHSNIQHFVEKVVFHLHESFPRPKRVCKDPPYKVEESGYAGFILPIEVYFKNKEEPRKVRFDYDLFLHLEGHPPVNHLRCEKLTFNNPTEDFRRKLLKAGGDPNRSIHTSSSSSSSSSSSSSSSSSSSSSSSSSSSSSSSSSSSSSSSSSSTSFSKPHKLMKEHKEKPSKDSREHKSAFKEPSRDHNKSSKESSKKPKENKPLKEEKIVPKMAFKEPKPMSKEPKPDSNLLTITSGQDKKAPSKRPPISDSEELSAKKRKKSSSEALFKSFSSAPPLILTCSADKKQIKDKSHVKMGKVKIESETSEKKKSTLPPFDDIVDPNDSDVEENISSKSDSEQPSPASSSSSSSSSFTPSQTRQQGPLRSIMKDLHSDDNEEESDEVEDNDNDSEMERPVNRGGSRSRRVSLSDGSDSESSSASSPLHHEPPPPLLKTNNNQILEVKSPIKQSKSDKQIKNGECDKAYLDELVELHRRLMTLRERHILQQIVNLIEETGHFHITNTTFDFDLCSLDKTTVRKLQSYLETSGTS
E coli growth: E. coli growth inhibition, primary screen, OD600 | Escherichia coli growth, 23 h; active compounds read low | OD600 absorbance (concentration not given with the values) | actives 0.21% (n = 330,000) | AID 1053175, 2014;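 active = OD600 absorbance below the run mean of sample wells minus 3.6 SD, in any replicate, cut at about 0.56 in these data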;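 also: stock transfer was 300 nL into about 60 µL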
* hit, by the source's call; i = inactive; ? = inconclusive; . = no result given; & = joins results of further samples.

SMILES	HNF4A DNA FP	RanGTP-Impb inh	Vif A3G	E coli growth	AF4-AF9 inh	UCH37 DUB inh	FGF22 binding
COc1cccc(C(=O)Nc2ccc3nc(N4CCOCC4)cc(C)c3c2)c1	-1.6	1.8	-4.4%	0.706	9.7	0.9	i
CCN(Cc1ccccc1)C(=O)Cn1c(=O)n(CCC(=O)N2CCCCC2)c(=O)c2sccc21	-0.9	-3.6	.	0.672	4.5	5.0	i
O=C(O)c1ccc(NC(=O)c2ccc(COc3ccccc3)o2)cc1	2.6	0.4	-5.2%	0.655	-8.2	4.5	i
COc1ccc(S(=O)(=O)NC2CCSc3ccccc32)cc1OC (stereo unspecified)	4.3	1.1	-1.4%	.	-3.0	.	i
CCn1ncc(/C=N/N=C2\CCC3C4CCc5cc(O)ccc5C4CCC23C)c1C (stereo unspecified)	-1.4	2.4	6.2%	.	.	.	.
O=C(N/N=C/c1cccc([N+](=O)[O-])c1O)C(O)(c1ccccc1)c1ccccc1	-0.9	?	.	.	6.8	.	i
CS(=O)(=O)c1ccc2sc(NC(=O)c3cc4ccccc4o3)nc2c1	-2.2	?	-3.7%	0.716	-2.5	-6.6	i
CN(Cc1ccccc1)Cc1nc2c(c(=O)n(C)c(=O)n2C)n1Cc1ccc(F)cc1	-3.4	1.9	-4.7%	0.688	.	2.0	.
Cc1ccc(-c2nnnn2C2C/C(=N\NC(N)=S)C3OCC2O3)cc1 (stereo unspecified)	0.1	-0.8	11.9%	.	1.4	.	.
CC(C)NC(=O)c1ccccc1N(Cc1ccccc1)S(C)(=O)=O	0.5	-2.9	-9.6%	0.719	.	1.4	.
CC(C)NC(=O)CN1CCN(C(=O)CCl)CC1	0.1	-2.6	?	0.691	-1.2	3.1	i
CCOc1ccc(S(=O)(=O)Nc2nc3ccccc3nc2Nc2ccc(N3CCOCC3)cc2)cc1	-17.4	7.0	.	0.693	14.6	5.6	i

(next part)
SMILES	HNF4A DNA FP	RanGTP-Impb inh	Vif A3G	E coli growth	AF4-AF9 inh	UCH37 DUB inh	FGF22 binding
CCOC(=O)Cc1c(C)nc2c(-c3ccccc3)c[nH]n2c1=O	-0.5	-3.8	10.6%	0.643	.	.	.
CC(C)(C)c1ccc(C(=O)NCC(=O)OCc2ccc([N+](=O)[O-])cc2)cc1	-3.4	0.3	23.6%	0.704	.	0.9	.
Cc1ccc(CN2CCC(CNC(=O)Nc3ccccc3F)CC2)cc1	-1.7	-8.5	0.6%	0.599	4.6	1.5	i
COc1cccc(C=Nc2cc(C)on2)c1O	-0.9	0.4	-6.0%	0.655	.	4.2	.
O=C(CCl)N(c1ccccc1)C1CCS(=O)(=O)C1 (stereo unspecified)	-0.3	-3.6	.	0.688	.	5.5	.
COc1cc(C2C(C#N)=C(N)Oc3c2ccc2ccccc32)ccc1OCC(=O)Nc1ccc(C)cc1 (stereo unspecified)	0.1	0.4	-0.5%	0.707	-15.5	-6.5	i
O=C(c1cc(-c2ccco2)on1)N1CCOCC1	1.0	.	5.5%	0.665	.	2.4	.
COC(=O)Nc1nnc(-c2ccccc2Cl)s1	4.6	-0.3	28.1%	0.695	.	-9.7	.
Cc1ccc(OCCCN2CCCC2)c(C)c1	-0.8	3.3	-1.1%	0.693	.	3.0	.
CC(C)OCCCNC(=O)NC(=O)c1ccc(Cl)cc1	-3.4	0.5	-0.1%	0.653	-1.6	1.1	i
COc1ccc(N2CCN(CCNS(=O)(=O)c3ccc(C)cc3)CC2)cc1	-0.8	2.9	2.9%	0.606	7.3	3.1	i
COC(=O)c1cc(NC(=O)C2COc3ccccc3O2)ccc1Cl (stereo unspecified)	-1.9	-1.3	6.1%	0.691	.	3.7	.

(listing goes on)
SMILES	HNF4A DNA FP	RanGTP-Impb inh	Vif A3G	E coli growth	AF4-AF9 inh	UCH37 DUB inh	FGF22 binding
COc1ccc(OC)c(NC(=O)CN(Cc2ccccc2)S(C)(=O)=O)c1	1.0	1.5	14.1%	0.698	-7.5	0.9	i
C=CCNc1ncnc2c1ncn2[C@H]1CN(Cc2ccc(F)cc2)C[C@@H](CO)O1	0.0	.	.	.	-1.4	.	i
OCCNC1=NCCN1	-0.1	3.4	3.4%	0.771	.	-2.4	.
COc1ccc(-c2cc(C(=O)N3CC(C)CC(C)C3)c3ccccc3n2)cc1OC (stereo unspecified)	-0.5	-2.3	5.7%	0.655	-3.4	-43.8	i
CC1CCc2c(sc(NC(=O)c3cccn3C)c2C(N)=O)C1 (stereo unspecified)	9.0	.	3.9%	0.669	4.3	-25.9	i
O=C(CN1CCN(c2ccc(Cl)cc2)CC1)Nc1ccc(F)cc1	2.2	0.4	0.9%	0.658	.	2.7	.
CC(C)(C)C(=O)Nc1ccc(-c2nc3ccccc3c(=O)o2)cc1	-1.7	.	.	0.726	-0.1	-52.7	i
CC(C)COc1cccc(C(=O)Nc2ccc(S(=O)(=O)N3CCOCC3)cc2)c1	2.0	3.1	8.0%	0.603	.	3.6	.
CN(CC(=O)Nc1c(Cl)cccc1Cl)C(=O)c1cc2ccccc2cc1O	1.5	-1.3	-9.0%	0.619	2.0	-1.5	i
COc1ccc2nnc(-c3ccc(C(F)(F)F)cc3)n2n1	2.3	-0.6	10.3%	0.653	3.7	-0.1	i
C=CCc1ccccc1OCC(O)CN1CCN(c2ccccc2OC)CC1 (stereo unspecified)	1.5&-3.3	4.2	15.1%	0.652	1.1	2.8	i
Cc1ccc(C)c(C(=O)NC(C)c2ccc(-n3ccnc3)cc2)c1 (stereo unspecified)	-1.1	-1.9	.	0.712	0.4	-3.7	i

Further compounds follow:
SMILES	HNF4A DNA FP	RanGTP-Impb inh	Vif A3G	E coli growth	AF4-AF9 inh	UCH37 DUB inh	FGF22 binding
Nc1nc2c(Cl)cc(Cl)cc2s1	-2.5	0.9	1.8%	0.649	-4.9	3.1	i
NS(=O)(=O)c1ccc(NC(=O)CCCCCN2C(=O)c3ccccc3C2=O)cc1	1.6	.	10.6%	0.685	0.2	3.8	i
COC(=O)/C(C#N)=C\c1c(OC)[nH]c2ccccc12	1.2	1.4	0.1%	0.628	0.1	-13.4	i
COc1ccc(-c2nn(CCC#N)cc2C(=O)Nc2cccc(C(=O)O)c2)cc1OC	1.1	-5.5	.	0.683	-0.7	3.7	i
CC1CCN(S(=O)(=O)c2ccc(NC(=O)c3ccncc3)cc2)CC1	4.8	-4.0	-4.1%	0.742	0.1	1.0	i
COc1ccc(NC(=O)c2cc3c(s2)CCC3)cc1S(=O)(=O)N1CCOCC1	-6.7	-1.4	18.0%	0.702	.	-9.6	.
Cc1c(C(=O)NCc2cccs2)oc2ccc(S(=O)(=O)N3CCOCC3)cc12	-2.7	1.2	-6.7%	0.717	.	2.9	.
O=C(CCn1c(=S)[nH]c2ccccc2c1=O)NCC1CCCO1 (stereo unspecified)	-0.9	1.4	-1.9%	0.715	5.3	5.7	i
CCC(CCC(=O)NNC(=O)Cc1ccc([N+](=O)[O-])cc1)C(=O)O (stereo unspecified)	5.8	0.6	32.3%	0.663	1.4	4.6	i
Cc1ccc(C(C)C)c(OCc2ccc(-c3nnco3)cc2)c1	3.1	0.9	4.0%	0.766	.	-2.8	.
Cc1ccc(C(=O)N(c2c(C)n(C)n(-c3ccccc3)c2=O)C(C)C)cc1	3.2	6.0	-1.1%	0.706	3.8	5.0	i
COC(=O)c1cn(CCOc2ccccc2)c2ccccc12	-0.1	1.1	-1.7%	0.723	.	2.6	.

(more compounds)
SMILES	HNF4A DNA FP	RanGTP-Impb inh	Vif A3G	E coli growth	AF4-AF9 inh	UCH37 DUB inh	FGF22 binding
CCCCCc1c(-c2ccccc2OC)ncn1CCc1ccccc1OC	7.3	.	.	.	9.9	.	i
COc1ccccc1Cc1c(-c2ccc(C#N)cc2)nc2ccc(Br)cn12	7.6	.	.	.	3.4	.	i
O=C(NCCN1C(=O)S/C(=C\c2ccccc2Cl)C1=O)C1=COCCO1	-1.3	0.9	8.2%	0.678	-2.2	3.0	i
O=S1(=O)N=C2CCCCCN2C(c2ccc(Br)cc2)N1 (stereo unspecified)	-3.5	-1.0	22.8%	0.674	-0.7	-1.1	i
Cc1ccc(NC(=O)CN(C)C(=O)c2cccc(Br)c2)cc1	-0.9	3.1	-1.1%	0.677	-0.6	2.3	i
N#CC1(NC(=O)CSc2nnc(C3CC3)n2N)CCCCC1	-1.6	.	-0.3%	.	0.3	.	i
C/C(=N\NC(=O)c1cccnc1)c1ccccc1	-0.7	0.7	.	.	1.1	.	i
CN1CCN(C(=O)CSc2ccc(C(F)(F)F)cc2[N+](=O)[O-])CC1	3.6	4.2	22.3%	0.655	.	3.4	.
O=C(CSc1n[nH]c(-c2ccccn2)n1)Nc1cccc(Cl)c1	-0.2	1.6	.	0.575	0.7	0.9	i
Cc1ccc(CNC(=O)[C@H](C)[C@H]2C[C@]2(C)[C@H](NC(=O)OCc2ccccc2)c2ccccc2)o1	0.6	8.4	.	.	.	0.0	.
Cc1oc(/N=C/c2ccc(Cl)cc2)c(C#N)c1C	4.1	2.5	15.5%	.	.	.	.
COc1ccc(OC)c(/C=C/C(=O)Nc2cccc(S(=O)(=O)NC3=NCCCCC3)c2)c1	3.1	.	1.6%	0.668	-1.0	-167.7	i

Next section
SMILES	HNF4A DNA FP	RanGTP-Impb inh	Vif A3G	E coli growth	AF4-AF9 inh	UCH37 DUB inh	FGF22 binding
CCN(c1ccccc1)S(=O)(=O)c1ccc(Oc2ccc([N+](=O)[O-])cc2)nc1	0.1	-1.9	-2.8%	0.698	1.2	1.6	i
CCCCCCCCC[n+]1cccc2c3ccccc3ccc21	-1.6	2.9	17.1%	0.492*	.	-109.4	.
Cc1ccc(C(=O)COC(=O)C(C)N2C(=O)C3C4CCC(C4)C3C2=O)cc1C (stereo unspecified)	2.7	4.4	.	0.688	-4.6	0.5	i
Cn1c(=O)c2cc(NC(=O)NCCc3cccs3)ccc2n1Cc1cccc(C(F)(F)F)c1	2.3	.	.	.	-3.3	.	i
NS(=O)(=O)c1ccc(CCNC(=O)C2CCN(S(=O)(=O)c3cnc[nH]3)CC2)cc1	1.5	-2.3	22.6%	0.618	-6.5	-0.3	i
Nc1n[nH]c2c1C1(CCCCC1)Cc1ccccc1-2	0.7	0.8	17.1%	0.668	.	-0.7	.
CCCCNC(=O)CN1C(=O)CSc2ccc(S(=O)(=O)N3CCOCC3)cc21	3.0	.	42.4%	.	-10.3	.	i
c1ccc(CN2CCC(Nc3nc(-c4cccs4)nc4ccccc34)CC2)cc1	-0.8	5.2	4.8%	.	12.4	.	i
O=C(CCN1C(=O)COc2ccccc21)NCCN1CCN(c2cccc(Cl)c2)CC1	0.3	-2.0	1.5%	0.683	.	3.0	.
COc1ccc(C(=O)COC(=O)CNS(=O)(=O)c2ccc(C)cc2)cc1	5.1	5.6	?	0.663	4.8	-0.9	i
O=C(NCc1n[nH]c(=S)n1Cc1ccccc1)c1ccccc1	4.3	3.3	-1.8%	0.701	-9.9	0.5	i
COCCCNC(=O)Cc1c(C)c2cc3c(cc2oc1=O)OC(C)(C)CC3	-0.2	-0.9	-8.1%	0.681	0.7	i	i
CC(C)C(=O)Nc1cccc(C(=O)Nc2cc([N+](=O)[O-])ccc2F)c1	-1.4	1.4	.	0.711	-1.7	19.7	i

Not all compounds are listed; count on the stated rates, not on these rows.
